2A firefly – FMDV 2A StopGo reporter, firefly signal | HEK cells with a luciferase reporter of 2A StopGo recoding | Potency, µM (highest dose often 57.5 µM), inactives show at the highest dose signal change, negative = less light | 120,000 compounds, 0.23% hits; active = well fitted falling curve with a large enough effect; inconclusive = small, poorly fitted or top-dose-only effect; inactive = no such curve, though single readings can be large or run the other way; further: nearly all actives have a fitted effect of over 60% in size; overnight with compound
StopGo RLuc – FMDV 2A StopGo reporter, Renilla signal; AID 1745857; Potency, µM (highest dose often 57.5 µM), for the others: at the top dose signal change, negative = less light; 120,000 compounds, 0.32% hits; HEK cells with a luciferase reporter of 2A StopGo recoding; active means well fitted falling curve with a large enough effect; inconclusive means small, poorly fitted or top-dose-only effect; inactive means no such curve, though single readings can be large or run the other way; further: nearly all actives have a fitted effect of over 55% in size; overnight with compound
An asterisk follows results filed as active; u = inconclusive; & = joins results of further samples; [ ] = dose if it differs, or a comment. On the % scale 0 is the no-effect control and ±100 the full control effect; potency means the concentration at half of the fitted maximal effect.

Fields: StopGo RLuc	2A firefly
> CN1CCN(C(CNC(=O)C(=O)Nc2ccccc2)c2ccc3c(c2)OCO3)CC1 (stereo not given)
→ 85%[activator]	12%
> NC(=O)C1CCN(C(=O)c2ccc3ccccc3n2)CC1
→ 6%	0%
> CCOc1ncccc1CNC(=O)c1nccnc1N
→ 4%	22%
> Cc1ccc(NC(=O)C2CCCN(c3ncnc4c3nc3n4CCCCC3)C2)cc1F (stereo not given)
→ -13%	-9%
> CN(Cc1ccccc1)c1oc(-c2cccc(Cl)c2)nc1C#N
→ 30%	21%
> CC(=O)Nc1ccc(C2Sc3ccccc3NC3=C2C(=O)c2ccccc23)cc1 (stereo not given)
→ 274%[activator]	98%[activator]
> CNC(=S)N/N=C(/C)c1ccc(C)c([N+](=O)[O-])c1
→ 0%	17%
> CCN(CC)c1nc2ccccc2nc1C(C#N)S(=O)(=O)c1ccc(C)cc1 (stereo not given)
→ 69%[activator]	26%
> CCC12CN3CC(CC)(CN(C1)C3c1ccc(O)c(OC)c1)C2O (stereo not given)
→ -6%	-3%
> CC(C)c1ccc(NC(=O)CS(=O)(=O)c2cccc3nsnc23)cc1
→ 21%	16%
> COc1ccc(NCc2nc3ccccc3n2CCOc2ccccc2C)cc1
→ 100%[activator]	73%[activator]
> Cc1ccc2c(c1)-c1ccccc1C2=Nc1cccc2ccccc12
→ 7%	5%
> CC(Oc1ccc(Cl)cc1Cl)c1nc(-c2ccncc2)no1 (stereo not given)
→ 15%	0%
> Fc1ccc(C2=Nn3c(nnc3-c3ccccn3)SC2)cc1
→ -11%	-5%
> NCc1cc(Cl)c2c(c1)OCCCO2
→ 1%	4%
> CC[N+](C)(CC)CCOC(=O)C1c2ccccc2Oc2ccccc21
→ -8%	-17%
> O=C(Nc1ccc(O)c(-c2nc3ccccc3o2)c1)c1cccc(F)c1
→ 11%	13%
> COc1ccc(N(C(=O)c2cccs2)S(=O)(=O)c2ccc3c(c2)n(C)c(=O)n3C)cc1
→ 100%[activator]	36%[activator]
> Cc1ccc(NC(=O)c2nnc(C(=O)N3CCC(CC(=O)N4CCCCC4)CC3)s2)cc1
→ u	u
> CC(=O)OCc1cnc(C)c2oc(=O)c(C(=O)Nc3cccc(F)c3)cc12
→ u	14%
> C=CCNc1nc(-c2c(C(=O)OC)c(C)n(C3CC3)c2C)cs1
→ -14%	-21%
> COc1ccc(C(=O)Nc2oc3ccccc3c(=O)c2-c2ccc(OC)c(OC)c2)cc1
→ 49%[activator]	6%
> CN(CC#CC1(C)CCCC(C)(C)O1)Cc1ccccc1 (stereo not given)
→ 5%	4%
> O=C(CSc1ncnc2scc(-c3ccccc3)c12)Nc1ccc(F)cc1
→ 136%[activator]	2%
> COc1ccccc1N1CCN(C(=O)CSc2nc3ccccc3nc2Cc2ccc(F)cc2)CC1
→ -9%	-16%
> COC(=O)c1ccc(C(=O)Nc2ccc(O)c(-c3nc4ccccc4o3)c2)cc1
→ -7%	-10%
> CC(=O)N1CCc2c(sc(NC(=O)CSc3ccc(F)cc3)c2-c2nc3ccccc3s2)C1
→ -3%	-15%
> Cn1c(C(=O)NCc2cccc(Cl)c2)cc2oc3ccccc3c21
→ -29%	4%
> Cc1ccc(CN(C(=O)COc2ccc(Cl)c(C)c2)C2CCS(=O)(=O)C2)o1 (stereo not given)
→ -12%	0%
> CCOc1ccc(-n2c(SCc3nc(-c4ccc(OC)cc4)no3)nnc2-c2ccncc2)cc1
→ -21%	u
> CCn1c2ccccc2c2cc(CNCCc3c[nH]c4ccccc34)ccc21
→ u	u
> CCOc1ccc(-n2c(SCC(=O)Nc3cccc(Cl)c3)nc3c(oc4ccccc43)c2=O)cc1
→ -14%	-13%
> N#Cc1nc(-c2ccc(F)cc2)oc1NCc1ccccc1Cl
→ 5%	24%
> CCOC(=O)c1noc2ncn(Cc3cccc(C#N)c3)c(=O)c12
→ -2%	-18%
> CN(C)C(CNC(=O)c1sc2ccccc2c1Cl)c1ccco1 (stereo not given)
→ 5%	158%[activator]
> CCc1ccccc1NS(=O)(=O)c1ccc2[nH]cc(C(=O)N(CC(C)C)CC(C)C)c(=O)c2c1
→ 9%	-20%
> O=C(Nc1ccccc1Cl)C12CC3CC(CC(Cl)(C3)C1)C2
→ 3%	-6%
> CNc1cc(C)nc2c(-c3ccc(OC)c(OC)c3)c(C)nn12
→ 0%	0%
> Cn1c(=O)c2c(nc(CN3CCCCC3)n2CCCO)n(C)c1=O
→ -1%	0%
> COc1cc(/C=C/C(=O)c2ccc(OC(=O)c3cccs3)cc2)cc(OC)c1OC
→ -6%	13%

Whole records, looked up by structure. Values in the order: StopGo RLuc | 2A firefly
`NCc1cc(Cl)c2c(c1)OCCCO2` is listed as 1% | 4%
`CNC(=S)N/N=C(/C)c1ccc(C)c([N+](=O)[O-])c1` is listed as 0% | 17%
`CC(Oc1ccc(Cl)cc1Cl)c1nc(-c2ccncc2)no1` (stereo not given) is listed as 15% | 0%
`CC[N+](C)(CC)CCOC(=O)C1c2ccccc2Oc2ccccc21` is listed as -8% | -17%

(further entries)
Fields: StopGo RLuc	2A firefly
> COc1ccc(-c2cc(C(=O)Nc3ccc4c(c3)OCO4)on2)cc1OC
→ -2%	24%
> Cc1ccc(NC(=O)CN2CCN(C(=O)CCc3ncc(-c4ccccc4)o3)CC2)cc1
→ -19%	-11%
> O=C(c1ccc2c(c1)CCN2S(=O)(=O)c1ccc(Cl)cc1)N1CCN(c2ccccc2F)CC1
→ -7%	-22%
> O=C(CCc1c[nH]c2ccccc12)N1CCC(c2c[nH]c3ccccc23)CC1
→ -9%	-15%
> CC(=O)c1ccc(S(=O)(=O)Nc2cc(Cl)ccc2C(=O)N(C)C)cc1
→ 86%[activator]	9%
> COc1ccc(-c2nc3ccccc3s2)cc1NC(=O)c1cc(OC)c(OC)c(OC)c1
→ -2%	128%[activator]
> O=C(Nc1cccc(OCc2ccncc2)c1)c1ccc[n+]([O-])c1
→ -2%	0%
> CCOC(=O)c1[nH]c(C)c(CCC(=O)NCc2ccccc2)c1C
→ 9%	-10%
> CC(=O)c1c(C)oc2c(Br)cc(NS(=O)(=O)c3ccc(Cl)c(C)c3)cc12
→ 1%	-13%
> COC(=O)c1cc(S(=O)(=O)NCC2CCN(Cc3cc(C)ccc3C)CC2)c[nH]1
→ -25%&-13%	-20%&-15%
> Cc1ccccc1NC(=O)COC(=O)c1cccc2c(=O)c(C)c(-c3ccccc3)oc12
→ -9%	3%
> COc1ccc(OC)c(CNC(=O)CN(C(=O)C2=C(C)OCCS2)c2ccc(Cl)cc2)c1
→ 13%	-7%
> CC(C)CNC(=O)OCc1cn(Cc2ccccc2Cl)nn1
→ 0%	11%
> COc1ccccc1-c1coc2cc(OC(=O)C(C)(C)C)ccc2c1=O
→ 5%	48%[activator]
> Cc1cnc(NC(=O)CCc2ccc(S(N)(=O)=O)cc2)s1
→ 20%	10%
> Cc1ccc(NC(=O)c2ccccc2Oc2ccccc2)cc1S(=O)(=O)N(C)C
→ 0%	-6%
> CC(C)OC(=O)c1ccc(NC(=O)CCc2ncc(-c3ccc(F)cc3)o2)cc1
→ -14%	10%
> COc1ccc(Nc2nc3ccccc3n3c(N)nnc23)cc1
→ -13%	52%[activator]
> CCc1ccc2oc(-c3ccc(C)c(NC(=O)Cc4ccccc4)c3)nc2c1
→ 22%	178%[activator]
> COc1cccc(-n2cnnc2SC(C)C(=O)Nc2ccc(C(C)C)cc2)c1 (stereo not given)
→ 1%	17%
> NC(=O)CN1C(=O)C2(SCC(=O)N2c2cccc(F)c2)c2ccccc21 (stereo not given)
→ -2%	6%
> CCNC(=O)c1ccc(C)c(-n2c(C)nc3cccnc32)c1
→ -9%	-18%
> Cc1ccc(C(=O)N(Cc2ccc(N(C)C)cc2)Cc2ccco2)cc1
→ 127%[activator]	29%
> CC(C)(C)c1ccccc1OCC(=O)Nc1cccc(C#N)c1
→ 21%	7%
> CCCCc1ccc(NS(=O)(=O)c2cc3c4c(c2)CC(=O)N4CCC3)cc1
→ 199%[activator]	-1%
> CCN1CCc2c(sc(-n3cccc3)c2CNC(=O)NCc2ccc(C)cc2)C1
→ 27%	0%
> COc1cc(CNC(=O)c2cnc(SC)nc2-c2ccccc2)cc(OC)c1OC
→ -13%	-16%
> CCSc1nc(-c2cccc(Cl)c2)nc2c1Cc1c(CO)cnc(C)c1O2
→ -11%	-4%
> CN(C)S(=O)(=O)c1ccc(C(=O)NCCSc2c(-c3ccccc3)[nH]c3ccccc23)cc1
→ -30%	u
> CC(=O)c1ccc(NC(=O)Cn2ccc3c(Cl)cccc32)cc1
→ 4%	33%[activator]
> Cc1oc2ccc(O)c(CN3CCN(Cc4ccccc4)CC3)c2c1C(=O)Nc1ccccc1
→ 6%	3%
> O=C1CCc2cc(-c3csc(Nc4ccccc4)n3)ccc2N1
→ 16%	165%[activator]
> Cc1cccc(NC(=O)c2c(C)oc3ncn(CC(C)C)c(=O)c23)n1
→ 23%	5%
> CCOc1ccc2nc(NC(=O)c3cc(=O)c4ccccc4o3)sc2c1
→ 10%	66%[activator]
> O=c1cc(CN2CCCCC2)nc2nc(-c3ccccc3)[nH]n12
→ 11%	28%
> CC(=O)c1c(C)[nH]c(C(=O)NOCc2ccccc2)c1C
→ 95%[activator]	0%
> N#CC1=C(N)Oc2c(oc(CO)cc2=O)C1c1cccc(Oc2ccccc2)c1 (stereo not given)
→ 21%	2%
> Cc1ccc(C)n1-c1nnc(N2CCCC(C(=O)NCc3cccc(Br)c3)C2)s1 (stereo not given)
→ 9%	7%
> COc1cc(Br)c(/C=C(/C#N)C(=O)c2ccccc2)cc1O
→ 22%	21%
> O=C(COc1ccccc1-c1noc(COc2ccc(F)cc2)n1)NCc1ccccc1
→ -16%	u
> CC(=O)Nc1cccc(O)c1
→ -13%	-17%
> c1ccc(Cn2ncc3c2CCCC3NCc2ccccn2)cc1 (stereo not given)
→ -4%	-10%
> CCOC(=O)c1cc(-c2ccccc2)n(CCCC(=O)Nc2ccc(CC)cc2)c1C
→ 7%	8%
> COc1ccc(CCNc2ncnc3onc(-c4ccc(Cl)cc4)c23)c(OC)c1
→ -2%	-4%
> COc1ccccc1Nc1c2c(nc3ccc(NC(=O)c4ccccc4F)cc13)CCCC2
→ -19%	-9%
> CNc1nc2c(c(=O)[nH]c(=O)n2C)n1Cc1cccc2ccccc12
→ 19%	44%[activator]
> Cc1ccc(CNC(=O)c2scnc2C)cc1
→ 3%	16%
> Cc1cccc(N2CCN(C(=O)c3cc(S(=O)(=O)N4CCC(C)CC4)cn3C)CC2)c1C
→ 11%	u
> O=C(Nc1cc(F)ccc1F)c1ccc2c(Cl)c3c(nc2c1)CCCC3
→ 15%	0%
> CSCCC(NS(=O)(=O)c1ccc2c(c1)oc(=O)n2C)C(=O)N1CCN(c2cc(Cl)ccc2C)CC1 (stereo not given)
→ 62%[activator]	u

Among those listed so far, 18 have an aryl methoxy group.
Fields: StopGo RLuc	2A firefly
> CCC12CN3CC(CC)(CN(C1)C3c1ccc(O)c(OC)c1)C2O (stereo not given)
→ -6%	-3%
> COc1ccc(NCc2nc3ccccc3n2CCOc2ccccc2C)cc1
→ 100%[activator]	73%[activator]
> COc1ccc(N(C(=O)c2cccs2)S(=O)(=O)c2ccc3c(c2)n(C)c(=O)n3C)cc1
→ 100%[activator]	36%[activator]
> COc1ccc(C(=O)Nc2oc3ccccc3c(=O)c2-c2ccc(OC)c(OC)c2)cc1
→ 49%[activator]	6%
> COc1ccccc1N1CCN(C(=O)CSc2nc3ccccc3nc2Cc2ccc(F)cc2)CC1
→ -9%	-16%
> CCOc1ccc(-n2c(SCc3nc(-c4ccc(OC)cc4)no3)nnc2-c2ccncc2)cc1
→ -21%	u
> CNc1cc(C)nc2c(-c3ccc(OC)c(OC)c3)c(C)nn12
→ 0%	0%
> COc1cc(/C=C/C(=O)c2ccc(OC(=O)c3cccs3)cc2)cc(OC)c1OC
→ -6%	13%
> COc1ccc(-c2cc(C(=O)Nc3ccc4c(c3)OCO4)on2)cc1OC
→ -2%	24%
> COc1ccc(-c2nc3ccccc3s2)cc1NC(=O)c1cc(OC)c(OC)c(OC)c1
→ -2%	128%[activator]
> COc1ccc(OC)c(CNC(=O)CN(C(=O)C2=C(C)OCCS2)c2ccc(Cl)cc2)c1
→ 13%	-7%
> COc1ccccc1-c1coc2cc(OC(=O)C(C)(C)C)ccc2c1=O
→ 5%	48%[activator]
> COc1ccc(Nc2nc3ccccc3n3c(N)nnc23)cc1
→ -13%	52%[activator]
> COc1cccc(-n2cnnc2SC(C)C(=O)Nc2ccc(C(C)C)cc2)c1 (stereo not given)
→ 1%	17%
> COc1cc(CNC(=O)c2cnc(SC)nc2-c2ccccc2)cc(OC)c1OC
→ -13%	-16%
> COc1cc(Br)c(/C=C(/C#N)C(=O)c2ccccc2)cc1O
→ 22%	21%
> COc1ccc(CCNc2ncnc3onc(-c4ccc(Cl)cc4)c23)c(OC)c1
→ -2%	-4%
> COc1ccccc1Nc1c2c(nc3ccc(NC(=O)c4ccccc4F)cc13)CCCC2
→ -19%	-9%

High-throughput results: PubChem BioAssay, National Center for Advancing Translational Sciences (NCATS)

A portion of the library; the hit share may differ from the screen's.
